KCNQ2 pot = potentiators of rat KCNQ2 potassium channel; B-score at 10 µM; Potassium voltage-gated channel subfamily KQT member 2 (Rattus norvegicus), O88943; AID 2239, 2010; CHO-K1 KCNQ2, FluxOR thallium flux fluorescence; hits give high values; actives 0.54% (n = 310,000);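 active means fluorescence ratio B-score at least 3 SD of library B-scores, with initial fluorescence B-score within 3 SD, cut at about 5.3 in these data; same plate scores as AID 2156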;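 further: B-score of peak minus minimum over baseline fluorescence ratio after K+ and Tl+ stimulus; positive B-score means potentiation of KCNQ2 with more thallium influx and brighter signal; only the inactives scoring about 0 or higher are listed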
Target sequence (O88943 whole entry, looked up): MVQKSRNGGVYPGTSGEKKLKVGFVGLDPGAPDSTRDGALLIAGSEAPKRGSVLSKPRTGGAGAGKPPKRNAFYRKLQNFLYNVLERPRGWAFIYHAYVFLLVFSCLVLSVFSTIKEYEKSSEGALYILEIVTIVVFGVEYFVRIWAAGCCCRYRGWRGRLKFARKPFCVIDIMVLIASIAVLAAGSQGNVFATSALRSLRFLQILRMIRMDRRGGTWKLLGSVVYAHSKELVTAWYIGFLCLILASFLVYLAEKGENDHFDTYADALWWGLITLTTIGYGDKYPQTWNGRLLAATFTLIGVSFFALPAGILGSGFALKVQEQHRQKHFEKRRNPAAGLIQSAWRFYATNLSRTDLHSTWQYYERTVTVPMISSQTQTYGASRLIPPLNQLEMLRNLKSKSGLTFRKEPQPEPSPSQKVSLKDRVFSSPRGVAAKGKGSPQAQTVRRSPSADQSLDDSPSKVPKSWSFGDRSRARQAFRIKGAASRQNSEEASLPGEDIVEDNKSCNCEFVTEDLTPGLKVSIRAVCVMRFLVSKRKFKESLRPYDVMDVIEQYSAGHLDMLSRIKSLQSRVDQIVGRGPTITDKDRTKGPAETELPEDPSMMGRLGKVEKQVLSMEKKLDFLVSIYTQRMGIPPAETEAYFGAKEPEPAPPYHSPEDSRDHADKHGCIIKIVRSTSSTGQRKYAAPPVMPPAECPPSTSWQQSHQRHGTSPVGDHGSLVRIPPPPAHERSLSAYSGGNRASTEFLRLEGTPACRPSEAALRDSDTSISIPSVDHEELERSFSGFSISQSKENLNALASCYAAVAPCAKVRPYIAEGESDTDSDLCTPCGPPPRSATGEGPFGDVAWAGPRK
KCNQ2 pot baseline = second read-out of KCNQ2 pot, no call of its own (marks repeat the call); B-score; compound at 10 µM; measured here: initial fluorescence intensity artifact check;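 brightness before thallium and not channel activity; 0 = typical well and far values either way flag optical interference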
Active calls of the source: *; . = no result given; & = joins results of further samples.

1: COc1ccc(OCc2nc(N)nc(Nc3cccc(C)c3C)n2)cc1
2: Cc1ccccc1-c1nc(-c2cccnc2)no1
3: CN(CC(=O)Nc1ccc(F)c(F)c1F)C(=O)CCc1nc2sc3c(c2c(=O)[nH]1)CCCC3
4: O=C1NC(CCc2ccccc2)C(=O)N1Cc1ccccc1Cl (stereo not given)
5: CCCOc1ccc(N2C(=O)CC(N3CCC(C(=O)OCC)CC3)C2=O)cc1 (stereo not given)
6: CCNC(=O)NC(=O)C(C)OC(=O)c1oc2ccccc2c1CSC1CCCCC1 (stereo not given)
assay / compound	1	2	3	4	5	6
KCNQ2 pot	0.9	1.2	0.12	1.9	0.6	0.79
KCNQ2 pot baseline	-1	-0.07	0.31	-2.4	0.07	-0.4

7: CCOc1ccc(S(=O)(=O)N2CN3CCN(C3)C2)cc1
8: Cc1cccn2c(=O)c3cc(C(=O)NC4CCS(=O)(=O)C4)n(Cc4ccccc4)c3nc12 (stereo not given)
9: O=C1N=c2ccccc2=C1c1sc(=S)n(CC2CCCO2)c1O (stereo not given)
10: COC(=O)c1ccccc1NC(=O)c1c(Br)cnn1C
11: Cc1ccc(S(=O)(=O)NCCN2CCOCC2)c(C)c1
12: CCn1c(C)c(C)c2cc(C(=O)N3CCCC3)ccc21
assay / compound	7	8	9	10	11	12
KCNQ2 pot	0.25	0.36	0.55	0.7	0.85	0.37
KCNQ2 pot baseline	0.88	-0.43	0.34	-0.66	0.32	-0.34

Excerpt, nos. 9 to 12
9: O=C1N=c2ccccc2=C1c1sc(=S)n(CC2CCCO2)c1O (stereo not given)
10: COC(=O)c1ccccc1NC(=O)c1c(Br)cnn1C
11: Cc1ccc(S(=O)(=O)NCCN2CCOCC2)c(C)c1
12: CCn1c(C)c(C)c2cc(C(=O)N3CCCC3)ccc21
assay / compound	9	10	11	12
KCNQ2 pot	0.55	0.7	0.85	0.37
KCNQ2 pot baseline	0.34	-0.66	0.32	-0.34

Single values from above:
cpd 9 in KCNQ2 pot baseline = 0.34
cpd 10 in KCNQ2 pot baseline = -0.66

The listing continues.
13: O=c1[nH]c2ccccc2nc1-c1ccccc1
14: O=C(N/N=C/c1cccnc1)c1ccc([N+](=O)[O-])cc1Cl
15: Cn1ccnc1SCC(=O)Nc1ccc(F)c([N+](=O)[O-])c1
16: NS(=O)(=O)c1ccc(Nc2nc(-c3cccnc3)cs2)cc1
17: COc1ccc(S(=O)(=O)NNC(=O)c2ccc(-n3c(C)ccc3C)cc2)cc1
18: COc1ccc(OC)c(NC(=O)CN2CCN(C(=O)c3ccco3)CC2)c1
assay / compound	13	14	15	16	17	18
KCNQ2 pot	0.1	0.08	0.2	0.46	2.1	0.01
KCNQ2 pot baseline	0.88	-3.8	-0.65	-2.3	0.3	0.02

19: COc1cccc(N2CCN(C(=O)c3ccc(N4C(=O)NC5CC4(C)Oc4ccccc45)cc3)CC2)c1 (stereo not given)
20: CN(CC(=O)Nc1ccccc1Cl)C(=O)CN1C(=O)C2CCCCC2C1=O (stereo not given)
21: O=C(CSc1nnnn1-c1ccc(Cl)cc1)Nc1cccnc1Cl
22: O=S(=O)(NCCc1cn2ccccc2n1)c1cccs1
23: Cc1cc2oc(C(=O)N(Cc3ccco3)C3CCS(=O)(=O)C3)cc(=O)c2cc1Cl (stereo not given)
24: NC(=O)c1ccc(-n2nnnc2SCc2ccccc2)cc1
assay / compound	19	20	21	22	23	24
KCNQ2 pot	0.62	1.4	1.1	0.76	0.52	0.13
KCNQ2 pot baseline	-0.69	-0.23	-1.9	-0.01	0.37	-0.47

25: O=C(c1cc2ccccc2o1)N1CCC(N2CCC(C(=O)N3CCCC3)CC2)CC1
26: COC(=O)C1=C(CSc2nncn2C)NC(=O)NC1c1cc(C)ccc1C (stereo not given)
27: Cc1cc(C(=O)OCC(=O)NC2CCS(=O)(=O)C2)c(C)n1-c1ccccc1 (stereo not given)
28: COc1cc(OC)cc(-n2nnnc2SCC(=O)NCc2cccs2)c1
29: O=C(O)c1cc2c(o1)CCC/C2=N\O
30: CCOC(=O)NCc1ccc(S(=O)(=O)Nc2ccccc2C)cc1
assay / compound	25	26	27	28	29	30
KCNQ2 pot	0.21	0.97	0.8	0.5	1.3	0.1
KCNQ2 pot baseline	1.1	0.99	0.87	0.5	1.1	-1.8

31: Brc1ccc(-c2nn[nH]n2)cc1
32: CC(O)CNc1nc2c(c(=O)n(C)c(=O)n2C)n1C/C=C/c1ccccc1 (stereo not given)
33: Cc1cccc(NC(=O)CSc2nc(N)c(NC(=O)c3cccs3)c(=O)[nH]2)c1
34: Cc1oc(-c2cccc3ccccc23)nc1CN1CCC[C@H]1CO
35: Cn1c(=O)n(-c2ccccc2)c(=O)c2c3c(sc21)COC(C)(C)C3
36: COc1cc2c(cc1OC)CN(Cc1cc(=O)oc3c(C)c(C)ccc13)CC2
assay / compound	31	32	33	34	35	36
KCNQ2 pot	2.1	1.5	0.1	1.3	0.11	0.94
KCNQ2 pot baseline	-1.2	-1	-0.43	0.05	0.38	0.07

37: O=C(NCc1ccc2c(c1)OCO2)c1cc2c(s1)CSC2
38: CC(=O)c1ccc(N2CCN(C(=O)c3ccc4c(c3)OCO4)CC2)cc1
39: CC(C)(O)C(=O)N/N=C\c1ccc(OC/C=C/c2ccccc2)cc1
40: COc1cc(C(=O)NCCc2nc3ccccc3n2C)cc(OC)c1OC
41: O=c1c2ccccc2nc(-c2ccc(Cl)cc2)n1C1CCS(=O)(=O)C1 (stereo not given)
42: Cc1cccc(C(=O)N2CCC(c3nc4ccccc4s3)CC2)c1
assay / compound	37	38	39	40	41	42
KCNQ2 pot	0.41	2.5	0.67	1.6	0.1	1
KCNQ2 pot baseline	-1.8	0.86	0.1	-0.77	-1	0.75

43: CCN(CC)S(=O)(=O)C1CCS(=O)(=O)C1 (stereo not given)
44: C[C@H](CCC(=O)O)[C@H]1CC[C@H]2[C@@H]3[C@H](O)C[C@@H]4C[C@H](O)CC[C@]4(C)[C@H]3C[C@H](O)[C@]12C
45: Cc1c(C(=O)N/N=C/C(C)C)[nH]c2ccc([N+](=O)[O-])cc12
46: COCCCn1c(SCC(=O)NC2CCCC2)nnc1-c1ccccc1
47: COc1ccc(S(=O)(=O)N2CCC(C(=O)Nc3nnc(CCN4CCCCC4)s3)CC2)cc1
48: O=Cc1ccc(-c2cccc([N+](=O)[O-])c2)o1
assay / compound	43	44	45	46	47	48
KCNQ2 pot	0.86	0.07&1.6	0.22	0.68	0.25	0.34
KCNQ2 pot baseline	-0.93	.	0.07	0.47	0.14	-2

49: O=C(NNC(=O)C1CCCO1)c1ccc([N+](=O)[O-])cc1 (stereo not given)
50: CCN(CCO)Cc1csc2ccc(Br)cc12
51: COc1cccc(NC(=O)CN(C)CC(=O)Nc2ccc(C)cc2Cl)c1
52: COc1ccc(C(=O)NC(=S)N2CCN(c3ccc([N+](=O)[O-])cc3)CC2)cc1
53: O=C(O)c1[nH]c2ccccc2c1C(c1cccc(O)c1)c1c(C(=O)O)[nH]c2ccccc12
54: CCOC(=O)c1sc(Nc2nc(OC)cc(OC)n2)nc1C
assay / compound	49	50	51	52	53	54
KCNQ2 pot	1.1	0.2	0.01	0.91	0.54	0.15
KCNQ2 pot baseline	-0.06	-0.1	1.4	0.73	0.22	0.92

In a second layout: entries from further up
no. | Molecule | KCNQ2 pot | KCNQ2 pot baseline
54 | CCOC(=O)c1sc(Nc2nc(OC)cc(OC)n2)nc1C | 0.15 | 0.92
51 | COc1cccc(NC(=O)CN(C)CC(=O)Nc2ccc(C)cc2Cl)c1 | 0.01 | 1.4
53 | O=C(O)c1[nH]c2ccccc2c1C(c1cccc(O)c1)c1c(C(=O)O)[nH]c2ccccc12 | 0.54 | 0.22
50 | CCN(CCO)Cc1csc2ccc(Br)cc12 | 0.2 | -0.1
49 | O=C(NNC(=O)C1CCCO1)c1ccc([N+](=O)[O-])cc1 (stereo not given) | 1.1 | -0.06

Three of the entries above in order of the KCNQ2 pot baseline value, lowest first.
cpd | canonical_smiles | KCNQ2 pot | KCNQ2 pot baseline
50 | CCN(CCO)Cc1csc2ccc(Br)cc12 | 0.2 | -0.1
49 | O=C(NNC(=O)C1CCCO1)c1ccc([N+](=O)[O-])cc1 (stereo not given) | 1.1 | -0.06
54 | CCOC(=O)c1sc(Nc2nc(OC)cc(OC)n2)nc1C | 0.15 | 0.92

Continued:
55: COc1ccc(N2CCN(C3CCCN(C(=O)CN4CCCC4=O)C3)CC2)cc1 (stereo not given)
56: O=C(NC(Cc1ccccc1)C(=O)N1CCN(c2ccccn2)CC1)c1ccco1 (stereo not given)
57: COc1cc(NC(=O)CSCc2ccc(Cl)cc2)c(C(=O)O)cc1OC
58: CCN1CCN(C(=O)C2CCN(S(=O)(=O)c3ccc(Br)cc3)CC2)CC1
59: Cc1cc(C)n2c(SCC(=O)Nc3cc(C)on3)nnc2n1
60: COC(=O)c1ccc(NC(=S)NCC2CC2)cc1
assay / compound	55	56	57	58	59	60
KCNQ2 pot	1.5	1.3	0.05	1.3	0.41	0.4
KCNQ2 pot baseline	0.02	-1.4	-0.2	-1.9	1.8	-1.5

61: CNc1nc(-c2ccccc2)nnc1C(F)(F)F
62: COc1ccc(CCN2CC(C(=O)N(C)Cc3ccc(C)o3)CCC2=O)cc1 (stereo not given)
63: CCOC(=O)c1c(N)sc2c(O)c(Br)ccc12
64: CC(=O)Nc1ccc(C(=O)N2CCCc3ccccc32)cc1
65: Cc1ccc(S(=O)(=O)c2nnn3c2nc(N2CCCCC2)c2ccccc23)cc1
66: COC(=O)c1sccc1NC(=O)Nc1cccc([N+](=O)[O-])c1
67: Cc1cccc(-n2ncc3c(NCCc4ccc(S(N)(=O)=O)cc4)ncnc32)c1
68: O=C(CCC(=O)c1ccc(F)cc1)Nc1cccc(S(=O)(=O)Nc2cccc(Cl)c2)c1
assay / compound	61	62	63	64	65	66	67	68
KCNQ2 pot	1.3	1.2	4.1	0.2	0.33	2.4	1.6	0.12
KCNQ2 pot baseline	1.2	0.52	0.01	-0.35	-1.3	0.08	0.08	0.7

Source: PubChem

This is a subset (hit frequency here may not be typical).
